Screens from PubChem BioAssay.
Menin MLL FP TR: qHTS Assay for Inhibitors Targeting the Menin-MLL Interaction in MLL Related Leukemias: Competition With Texas Red Labeled MLL-derived Mutant Peptide. Potency, µM (series often up to 61.6 µM), without a hit: at the highest dose FP activity change, negative = inhibition, usual class: inhibitors. actives 0.23% (n = 270,000). AID 1768, 2009. Menin + Texas Red MLL mutant peptide, fluorescence polarization. O00255; active = well fitted inhibition curve with a large enough effect in the polarisation, with a control signal flat, not every such curve was filed as active; inconclusive = small, poorly fitted or top-dose-only effect, or effect the other way, or a change in a side signal; inactive = no such curve, though single readings can be large or run the other way; the % refers to the polarisation; note: % of control where 0% means no effect; many of its hits are not listed in these tables
Target sequence (O00255 whole entry, looked up): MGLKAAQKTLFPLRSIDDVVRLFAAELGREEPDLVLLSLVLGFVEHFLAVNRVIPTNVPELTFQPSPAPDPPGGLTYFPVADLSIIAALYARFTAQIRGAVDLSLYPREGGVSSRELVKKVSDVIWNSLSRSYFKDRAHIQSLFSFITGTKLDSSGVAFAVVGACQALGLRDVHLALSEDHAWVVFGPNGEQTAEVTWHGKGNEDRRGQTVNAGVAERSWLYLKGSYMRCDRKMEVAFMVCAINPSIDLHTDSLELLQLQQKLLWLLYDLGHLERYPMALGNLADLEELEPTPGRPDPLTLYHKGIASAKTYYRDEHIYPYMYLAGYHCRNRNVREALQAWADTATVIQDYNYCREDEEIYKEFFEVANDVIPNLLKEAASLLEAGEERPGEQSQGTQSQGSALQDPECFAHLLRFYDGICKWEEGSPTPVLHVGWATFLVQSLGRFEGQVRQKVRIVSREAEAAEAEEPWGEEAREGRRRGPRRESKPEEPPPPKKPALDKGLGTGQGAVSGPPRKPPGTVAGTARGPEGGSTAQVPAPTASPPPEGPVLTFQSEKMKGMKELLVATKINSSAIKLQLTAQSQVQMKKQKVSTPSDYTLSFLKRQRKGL
MBNL1 CUG block: qHTS Assay for Inhibitors of MBNL1-poly(CUG) RNA binding. AID 2675, 2010. Muscleblind-like protein 1 (Homo sapiens), Q9NR56. actives 0.036% (n = 280,000). TR-FRET MBNL1-His/biotin-(CUG)12 binding, 665/545 ratio. Potency, µM (series often up to 57.5 µM), for inactives: at the highest dose activity change, negative = inhibition, hits mostly inhibitors; active = well fitted inhibition curve with a large enough effect in the signal ratio, with a control signal flat, not every such curve was filed as active; inconclusive = small, poorly fitted or top-dose-only effect, or effect the other way, or a change in a side signal; inactive = no such curve, though single readings can be large or run the other way; the % refers to the signal ratio; note: % is set by controls: 0 for no effect and ±100 for the full control effect
Target sequence (Q9NR56 whole entry, looked up): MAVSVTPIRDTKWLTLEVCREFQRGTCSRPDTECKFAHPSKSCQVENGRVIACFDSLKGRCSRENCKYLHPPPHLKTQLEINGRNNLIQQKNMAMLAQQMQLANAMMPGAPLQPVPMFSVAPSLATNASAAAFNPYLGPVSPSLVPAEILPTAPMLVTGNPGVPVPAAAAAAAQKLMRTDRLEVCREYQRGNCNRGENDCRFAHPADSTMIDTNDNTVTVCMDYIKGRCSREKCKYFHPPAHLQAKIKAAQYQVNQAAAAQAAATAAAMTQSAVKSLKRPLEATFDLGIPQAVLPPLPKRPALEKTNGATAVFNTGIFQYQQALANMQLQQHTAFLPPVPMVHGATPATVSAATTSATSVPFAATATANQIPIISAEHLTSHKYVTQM
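TR-FRET readout: Ex 340 nm, 665/545 nm emission ratio, normalized to buffer-only (basal) and MBNL1-(CUG)12 controls. Complex of MBNL1-His with Biotin-(CUG)12, compounds 92 nM–58 uM, incubated 60 min at room temperature.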
FLuc counter: qHTS profiling assay for firefly luciferase inhibitor/activator using purifed enzyme and Km concentrations of substrates (counterscreen for miR-21 project); actives 6.9% (n = 360,000); purified FLuc, Km substrates, luminescence inhibition; Luciferin 4-monooxygenase (Photinus pyralis), P08659; Potency, µM (titrated, usually from 57.5 µM), for inactives: at the top dose activity change, negative = inhibition, usual class: inhibitors;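 note: plate controls were vehicle for no effect and reference inhibitor for full effect; nearly all actives have a fitted effect of over 55% in size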
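Purified P. pyralis luciferase, 10 nM final, with Km-level 10 uM D-luciferin and 10 uM ATP in 50 mM Tris acetate pH 7.5, 10 mM Mg acetate, 0.01% Tween-20, 0.05% BSA; 6-point qHTS titration about 60 µM downward; luminescence read.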
Rab9 promoter act: qHTS Assay for Rab9 Promoter Activators | Huh7 Rab9 promoter-luciferase reporter, luminescence, 24 h | Potency, µM (titrated, usually from 9.22 µM), for inactives: top-dose activation, negative = inhibition, most hits filed as activators | actives 2.8% (n = 320,000); note: % of control where 0% means no effect; nearly all actives have a fitted effect of over 60% in size
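Using Huh7 cells stably transfected with Rab9 promoter–luciferase, compounds were incubated 24 h at 37 °C, 5% CO2; luciferase luminescence was read 10 min after reagent addition.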
RORg inh: qHTS for inhibitors of ROR gamma transcriptional activity. Nuclear receptor ROR-gamma (Mus musculus), P51450. Drosophila S2 Gal4-RORgamma UAS-luciferase reporter, 20 h. Potency, µM (highest dose often 53.6 µM), for the others: at the top dose activity change, negative = inhibition, usual class: inhibitors. actives 5.4% (n = 310,000). AID 2551, 2010; note: % is set by controls: 0 for no effect and ±100 for the full control effect; nearly all actives have a fitted effect of over 60% in size
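Stably transfected Drosophila Schneider cells are the test system, with ROR gamma fused to Gal4 and luciferase under UAS control; luminescence is read after 20 hr of 700 uM copper sulfate induction at ambient temperature.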
NPC1 prom act: qHTS Assay for NPC1 Promoter Activators. Potency, µM (series often up to 9.22 µM), inactives show at the highest dose activation, usual class: activators. AID 485313, 2010. Huh7 NPC1 promoter luciferase reporter, 24 h. actives 2.4% (n = 320,000);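 note: % of control where 0% means no effect; nearly all actives have a fitted effect of over 60% in size; reporter is driven by a mutant NPC1 promoter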
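Huh7 cells stably carrying NPC1 promoter–luciferase, plated in Opti-MEM with 10% FBS for 2 h, were exposed to compound in DMSO for 24 h at 37 °C; luciferase reagent was added for 10 min and luminescence read.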
Gal4-VP16 FLuc: VP16 counterscreen qHTS for inhibitors of ROR gamma transcriptional activity; Potency, µM (doses to about 53.6 µM), without a hit: at the top dose activity, negative = inhibition, most hits filed as inhibitors; actives 3.5% (n = 310,000); Drosophila S2 Gal4-VP16 UAS-luciferase, luminescence, 20 h;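 note: Gal4-VP16 expression switched on by copper sulfate through the metallothionein promoter; % is set by controls: 0 for no effect and ±100 for the full control effect; nearly all actives have a fitted effect of over 50% in size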
ELG1 repair inh: qHTS screen for small molecules that inhibit ELG1-dependent DNA repair in human embryonic kidney (HEK293T) cells expressing luciferase-tagged ELG1; Potency, µM (titrated, usually from 46.1 µM), for the others: at the top dose activity change, negative = inhibition, actives largely listed as inhibitors; actives 2.3% (n = 330,000); AID 504467, 2011; HEK293T ELG1-luciferase reporter, luminescence, 16 h; DNA damage induced by 5-fluorouridine; note: % is set by controls: 0 for no effect and ±100 for the full control effect; nearly all actives have a fitted effect of over 55% in size
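Overnight (16 hr) co-exposure of 2,000 cells/well to 5-fluorouridine and compound at 37 °C preceded detection. Luciferase was quantified via ONE-Glo luminescence; loss of signal denotes inhibition.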
Mito fusion yeast: qHTS Assay for Small Molecule Inhibitors of Mitochondrial Division or Activators of Mitochondrial Fusion; Potency, µM (doses to about 46.1 µM), for the others: at the top dose growth rescue (activation), most hits filed as activators; actives 0.23% (n = 320,000); S. cerevisiae fusion-defective mutant growth rescue, CellTiterGlo 48 h;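 note: % of control where 0% means no effect; nearly all actives have a fitted effect of over 45% in size; temperature-sensitive fusion mutants such as fzo1-1 at 37 °C on non-fermentable ethanol glycerol medium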
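Yeast fusion mutant, YPEG (non-fermentable carbon), compound, 48 h at 37C non-permissive; CellTiterGlo added, 10 min RT, luminescence read. Rescued growth = division inhibition.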
PKM2 activator: qHTS Assay for Activators of Human Muscle isoform 2 Pyruvate Kinase; purified PKM2, Kinase-Glo ATP luminescence, activation; response scale: 0% is enzyme alone, no compound; Pyruvate kinase PKM (Homo sapiens), P14618; actives 0.34% (n = 260,000); Potency, µM (doses to about 57.5 µM), inactives show at the highest dose activation, hits mostly activators; note: % is set by controls: 0 for no effect and ±100 for the full control effect; nearly all actives have a fitted effect of over 55% in size
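Purified hPK-M2 (>95% pure) converted ADP (0.1 mM final) to ATP with 0.5 mM PEP in 50 mM imidazole pH7.2, KCl, MgCl2, Tween 20, BSA; 1 h at room temperature. ATP detected by Kinase-Glo luminescence.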
Numbers without * were called inactive; ? = inconclusive; . = not tested or not shown; & = joins results of further samples; ! = repeats disagree; [ ] = remark or other dose. Unless noted, calls come from the whole dose curve; as a rule, active = well fitted curve in the direction sought with a large enough effect; inconclusive = small, poorly fitted or top-dose-only effect, or another doubt; inactive = no such curve, though single readings can be large; an effect the other way counts as inactive or inconclusive. Potency is the fitted concentration of half-maximal effect. This is a subset; the hit share may differ from the screen's.

SMILES | Menin MLL FP TR | MBNL1 CUG block | FLuc counter | Rab9 promoter act | RORg inh | NPC1 prom act | Gal4-VP16 FLuc | ELG1 repair inh | Mito fusion yeast | PKM2 activator
Cc1ccc(C)c(NC(=O)CN(C)C(=O)C2COc3ccccc3O2)c1 (centres undefined) | . | . | 3% | 0% | . | 2% | . | 2% | 0% | .
CC(C)[C@@H]1COC(c2cccc(C3=N[C@H](C(C)C)CO3)c2)=N1 | 2% | -4% | ? | 26% | -42% | ? | 5% | ? | -11% | 1%
NC(=O)C1CCN(C(=O)c2ccccc2SCC(=O)NCC2CCCCC2)CC1 | . | 0% | -6% | 10% | 0% | -1% | -5% | 3% | -1% | -3%
Cc1ccc(C)c(N2CCN(C(=O)CCCN3C(=S)NC(C)(C)CC3C)CC2)c1 (centres undefined) | 1% | . | 2% | -8% | 5.6µM* | -8% | 4.5µM* | ? | -3% | -13%
CC(=O)NC1(C(F)(F)F)NC(=O)N(C2CCCCC2)C1=O (centres undefined) | -15% | 26% | 5% | 26% | -1% | -2% | -2% | -10% | 7% | 2%
Cc1cc(C)nc(/N=C(\N)Nc2ccc(F)c([N+](=O)[O-])c2)n1 | . | ? | -1% | -4% | -22% | 1% | 1% | ? | -4% | -5%
Cc1nccn1C[C@@H]1CCc2c(c3ccccc3n2C)C1=O | 17% | -14% | 4% | -4% | -30% | -3% | -1% | 6% | 1% | -2%
Brc1cccc(OCCCNC2CCCC2)c1 | -13% | -5% | 1% | -12% | 10% | 0% | 1% | -2% | -11% | 0%
Cc1c(-c2ccc(F)cc2)nc(N)c(C#N)c1-c1cccnc1 | . | 0% | -2% | -2% | 18% | -4% | -8% | -12% | -2% | -2%
CCCC(C)c1nnc(NC(=O)c2cc(C(=O)OC)cc([N+](=O)[O-])c2)s1 (centres undefined) | ? | 19% | ? | 3% | 10µM* | -4% | 16µM* | -13% | 6% | 0%
CCC(NC(=O)C1C2C=CC(C2)C1C(=O)O)c1ccc(C)cc1 (centres undefined) | -7% | 2% | -3% | -1% | -17% | 2% | 3% | 13% | -3% | 3%
O=C(NN=C1CCCCCCCCCCC1)c1cccc(S(=O)(=O)N2CCOCC2)c1 | 2% | -2% | 3% | -8% | -20% | -1% | -17% | -5% | -1% | 0%
CC(=O)c1ccc(NC(=O)C(C)OC(=O)C(C)Oc2cccc(C)c2)cc1 (centres undefined) | -3% | 6% | 6% | 2% | ? | -1% | 1% | 8% | 2% | 1%
Cc1cccc2c1-c1sc(C(=O)NCCCN3CCc4ccccc4C3)cc1CO2 | . | 3% | -11% | -1% | -10% | 1% | 0% | ? | 6% | 0%
Cc1ccc([N+](=O)[O-])cc1NC1CC(O)C(CO)O1 (centres undefined) | -14% | ? | -1% | -2% | 9% | 0% | 2% | ? | -3% | -11%
CCN1CCC2(CC1)Oc1c(OC)cccc1C1CC(c3cccnc3)=NN12 (centres undefined) | . | 21% | 0% | 15% | 3% | 9% | 12% | 3% | -5% | 24%
Cc1ccc(-c2nc3c(cnn3-c3ccccc3)c(=O)o2)cc1 | 1% | -6% | 0% | -6% | -4% | -2% | -3% | ? | 1% | -1%
Cc1nccn1CC1CCc2c(c3ccccc3n2C)C1=O (centres undefined) | 5% | -5% | 1% | 3% | -18% | -5% | -6% | 0% | 5% | -2%
CC(=O)Nc1cccc(C(=O)O)n1 | 6% | 3% | -3% | 8% | -1% | 1% | -1%[10 µM] | -6% | 3% | -2%
CN1CCC(=C2c3ccccc3C(O)c3ccccc32)CC1 (centres undefined) | -22% | -2% | -5% | -1% | 6% | -7% | 2% | -2% | -13% | -1%
CC#C[C@]1(O)CC[C@H]2[C@@H]3CCC4=CC(=O)CCC4=C3[C@@H](c3ccc(N(C)C)cc3)C[C@@]21C | -3%&-10% | 19% | 2% | -35%[46.1 µM] | ? | -26%[46.1 µM] | -8%&-2% | -5% | 9.2µM*! | 28%
CCCN(CCC)Cc1c(C(=O)N/N=C/c2ccoc2)nnn1-c1nonc1N | 1% | -7% | 3% | 4% | -32% | 3% | 1% | 1% | -3% | 12%
O=C(c1cccc(F)c1)N1C2C=CC(C2)C1(C(F)(F)F)C(F)(F)F (centres undefined) | . | -15% | 0% | 0% | -18% | -1% | -2% | 14% | 0% | -3%
COc1ccc(Oc2nc3c(c(=O)n(C)c(=O)n3C)n2Cc2ccccc2)cc1 | -1% | 2% | 5% | 2% | 16% | 0% | -15% | -7% | 3% | -4%
CCCCn1c(N)c(N(CC)C(=O)c2ccc(-c3ccc(Cl)cc3)o2)c(=O)[nH]c1=O | . | . | . | 2% | . | 2% | . | 10% | 0% | .
CCCCN1C(=O)N(c2nnc(C(C)(C)C)s2)C(O)C1c1ccc(C)cc1 (centres undefined) | . | . | -13% | -1% | 2% | 0% | -10% | -19% | 29% | 0%
COc1ccc(CNc2ncnc3cc(Cl)ccc23)cc1 | 20% | 5% | -2% | -8% | -36% | -7% | ? | ? | 2% | 20%
COc1ccc(C(=O)N/C(=C\c2cccs2)c2nc3ccccc3[nH]2)cc1OC | 7% | ? | ? | 0% | 20% | -1% | -14% | 2.3µM* | 2% | -9%
CCCC1=C(C(=O)OCC)C(c2ccc(OC)c(CSc3ccccn3)c2)C(C#N)=C(N)O1 (centres undefined) | -5% | . | 0% | -4% | ? | -10% | -8% | ? | 7% | 2%
O=C(/C=C/c1ccco1)Nc1nc(-c2ccccc2)cs1 | ? | . | 4.8µM* | 2.5µM* | -3% | 2.8µM* | -5% | ? | 17% | 0%
CCCCCC[C@@H]([C@@H](C)O)n1cnc2c(N)ncnc21 | -7% | . | . | 6%[46.1 µM] | 6% | -4%[46.1 µM] | -25% | . | -5% | .
Cc1ccc(CNC(=O)C(NS(=O)(=O)c2cccc3nsnc23)C(C)C)cc1 (centres undefined) | . | ? | 1% | -1% | -1% | -1% | 0% | -1% | 5% | .
O=C(COc1ccc(Cl)cc1)Nc1ccccc1CO | 3% | 7% | ? | ? | 43% | ? | -4% | ? | -1% | -7%
Cc1onc(-c2ccccc2Cl)c1C(=O)NNC(=O)C1CCN(Cc2ccccc2)CC1 | ? | 0% | 4% | -4% | 0% | -2% | 1% | ? | 1% | -4%
CC1(C)CC2CC(C)(CN2C(=O)c2ccc([N+](=O)[O-])cc2[N+](=O)[O-])C1 (centres undefined) | -7% | ? | 0% | -9% | -34% | 1% | 9% | -2% | -3% | 0%
Cn1c(NCCN(CCO)CCCc2ccc([N+](=O)[O-])cc2)cc(=O)n(C)c1=O | -5% | . | . | . | 12%[10 µM] | . | 0% | . | . | .
Clc1ccccc1C(c1ccccc1)(c1ccccc1)n1ccnc1 | ? | -1% | -16% | -32%[inhibitor][46.1 µM] | 6.3µM*! | -21%[46.1 µM] | ? | -25% | 0.52µM*! | -1%
COc1ccc(OC)c(S(=O)(=O)N2CCN(c3ccc(F)cc3)CC2)c1 | 23% | -1% | 1% | 1% | 4% | 1% | 3% | -4% | 2% | -2%
COc1ccc(OC2C(=O)N(Cc3ccc4c(c3)OCO4)C2c2cccs2)cc1 (centres undefined) | -7% | -11% | -1% | -8% | ? | -5% | -21% | ? | 11% | -1%
COc1cc2cc(-c3ccc(O)cc3O)nc(C)c2cc1OC | ? | ? | ? | 0%[1.84 µM] | -34% | -8% | 3% | -10% | 9% | .
CCOc1ccc(/C=N/NC(=O)Cc2cccs2)cc1 | . | 6% | 17µM* | ? | 3% | ? | 3% | ? | -6% | -7%
O=C(O)c1ccc(N=C2SCC(=O)N2Cc2ccccc2)cc1 | 13% | -7% | 0% | -7% | 4% | -4% | -2% | 14% | 10% | 0%
COc1ccc(C(=O)N2CCN(c3ncccn3)CC2)cc1 | -12% | -4% | -2% | -15% | 6% | -1% | 6% | 0% | -6% | .
Cc1ccc(C)c(S(=O)(=O)N2CCN(C(=O)[C@@H](NC(=O)c3ccc(F)cc3)C(C)C)CC2)c1 | . | . | -2% | -1% | . | -2% | . | ? | 9% | .
COc1c(Cl)cnn(-c2ccc(C)cc2)c1=O | -18% | . | -7% | -3% | 10% | -3% | -3% | 19% | -6% | -2%
COCCCNC(=O)CC(NS(=O)(=O)c1ccc(C)cc1)c1ccc(OC)cc1 (centres undefined) | . | 2% | 5% | -2% | -17% | -4% | -2% | -4% | -1% | -1%
OCc1cnc(SCc2ccccc2)n1Cc1ccccc1 | -11% | 2% | 0% | -1% | ? | 0% | 1% | -6% | 4% | -2%
